Screening results deposited in PubChem by ICCB-Longwood Screening Facility, Harvard Medical School.
Polio RdRp inh: inhibitors of poliovirus RNA polymerase binding and polymerization | P03300 | poliovirus polymerase elongation, fluorescence polarization; active compounds read low | % elongation, % (compound at 16.7 µg/mL) | 150,000 tested, 0.66% active; in the data active = % elongation below about 90%; note: some results filed as inactive read as strong as hits
Target sequence (P03300 1749-2209 limits assumed): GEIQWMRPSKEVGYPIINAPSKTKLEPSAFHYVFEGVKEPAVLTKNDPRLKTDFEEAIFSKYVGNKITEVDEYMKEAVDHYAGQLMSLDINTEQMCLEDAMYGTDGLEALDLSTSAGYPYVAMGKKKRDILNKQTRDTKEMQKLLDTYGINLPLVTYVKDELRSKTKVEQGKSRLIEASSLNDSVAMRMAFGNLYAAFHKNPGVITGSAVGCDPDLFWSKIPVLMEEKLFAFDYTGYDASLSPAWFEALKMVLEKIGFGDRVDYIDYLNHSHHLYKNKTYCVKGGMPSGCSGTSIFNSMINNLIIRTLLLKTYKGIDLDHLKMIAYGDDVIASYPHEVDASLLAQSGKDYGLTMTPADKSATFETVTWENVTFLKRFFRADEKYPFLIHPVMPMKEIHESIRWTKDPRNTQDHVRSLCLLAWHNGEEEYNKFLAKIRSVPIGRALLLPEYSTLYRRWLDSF
Polio RdRp inh intensity: further read-out of Polio RdRp inh, marked with its call; % elongation; measured here: total intensity read-out; formula for this scale not given here;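 total fluorescence in place of polarization; lower means less elongation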
Active calls of the source: *. These rows are one share of the data; rates above refer to the full screens.

Every second line gives: Polio RdRp inh | Polio RdRp inh intensity
- CC(=O)c1c(C)oc2c1cc(NS(=O)(=O)c1ccc(Br)cc1)c1ccccc12
    108 | 110
- CCc1cccc(NC(=O)Cn2c(=O)n(CCCCCC(=O)NCc3ccc(F)cc3)c(=O)c3sccc32)c1
    102 | 104
- COc1ccccc1CNC(=O)C1CCCN(c2nc3ccccc3n3cccc23)C1 (stereo not given)
    107 | 114
- COc1ccc(-c2nc(C)c(CCNC(=O)c3cc(OC)c(OC)c(OC)c3)s2)cc1OC
    107 | 104
- O=C1CC(c2nc3ccccc3n2CCCCOc2ccccc2)CN1c1ccccc1Cl (stereo not given)
    109 | 114
- Cc1nn(-c2ccccc2)c(-n2cccc2)c1C(=O)NCCc1ccc(Cl)cc1
    103 | 101
- COc1ccc(S(=O)(=O)N(CC(=O)Nc2cccnc2)c2ccc(Cl)cc2)cc1
    104 | 105
- O=C(NC1CCCCC1)c1ccc2c(c1)N(Cc1ccc(Cl)cc1)C(=O)c1ccccc1S2(=O)=O
    112 | 109
- COc1ccc(Cl)cc1N=C1NC(=O)CC(C(=O)Nc2ccccc2C(F)(F)F)S1 (stereo not given)
    109 | 110
- COc1cccc2c1cc1c(=O)n(CC(=O)N3CCN(c4ccccc4F)CC3)nc(C)n12
    107 | 107
- COc1ccc(OCCCCn2c(C3CC(=O)N(c4cccc(Cl)c4)C3)nc3ccccc32)cc1 (stereo not given)
    108 | 116
- N#Cc1nc(COc2ccccc2Cl)oc1NCCc1ccccc1
    103 | 105
- CC(Sc1nc(-c2ccccc2)c(C#N)c(=O)[nH]1)C(=O)Nc1ccc(F)cc1 (stereo not given)
    100 | 100
- COc1ccc(CCNC(=O)c2ccc3c(c2)sc2nc(-c4ccc(C)cc4)cn23)cc1OC
    106 | 101
- O=C(CCn1c(=O)c2cccn2c2cccnc21)NCc1ccccc1Br
    109 | 109
- COC(=O)c1sccc1S(=O)(=O)N(CC(=O)NCc1ccccc1)c1ccccc1
    99 | 104
- CCCCOc1ccc(CNC(=O)Cn2ncn3c(cc4cc(F)ccc43)c2=O)cc1
    107 | 111
- Cc1ccc(CNC(=O)CSc2c3c(nc4cc(Cl)ccc24)CCCC3)cc1
    103 | 109
- COc1cc(OC)c(NC2=C(c3ccc(C(F)(F)F)cc3)C(=O)c3ccccc32)cc1Cl
    99 | 101
- Cc1cc2c(cc1S(=O)(=O)NCc1ccc(N(C)C)cc1)OCC(=O)N2
    101 | 104
- Cc1ccccc1CNC(=O)C(=O)NCC(c1ccco1)S(=O)(=O)c1ccc(F)cc1 (stereo not given)
    100 | 106
- CCOc1ccc(-c2cn(-c3ccc(OC)cc3)c(SCC(=O)Nc3ccccc3Cl)n2)cc1
    108 | 114
- CCOc1ccc(-n2c(C)nc3cc(C(=O)NC4CCCC4)ccc32)cc1
    105 | 108
- CC(C)(C)c1ccc(-c2nc(SCC(=O)Nc3ccccc3F)n3[nH]c(=O)cc3n2)cc1
    106 | 109
- CC1(C)O[C@H]2[C@@H](O1)[C@@H](C(=O)Nc1ccc(F)c(F)c1)O[C@@H]1OC(C)(C)O[C@@H]12
    105 | 111
- O=c1c2ccccc2n(Cc2ccccc2Cl)c(=O)n1CCc1ccccc1
    107 | 107
- Cc1ccc(C)c(NC(=O)CN2C(=O)c3cccc4cccc2c34)c1
    100 | 106
- CCc1cc2c(cc3c(=O)n(CC(=O)NC4CCC(C)CC4)nc(CC)n32)s1 (stereo not given)
    109 | 107
- CN(Cc1ccccc1)c1ncnc2c1nnn2C
    101 | 108
- COc1ccc(S(=O)(=O)N2CCC(c3ccncc3)CC2)cc1OC
    104 | 101

Additional compounds:
Every second line gives: Polio RdRp inh | Polio RdRp inh intensity
- CCCN1CCN(C(=O)Cn2c(-c3cccs3)cc3ccccc32)CC1
    111 | 109
- Cc1ccc(CNC(=O)CCNS(=O)(=O)c2ccc3c(c2)CCCC(=O)N3)cc1
    103 | 106
- CCCN(CCC)C(=O)CSc1nc2ccccc2c(=O)n1Cc1ccco1
    106 | 106
- CCc1ccc(NC(=O)C2=CC(c3cccs3)=NS(=O)(=O)N2C)cc1
    110 | 111
- O=C(NCC(c1ccco1)S(=O)(=O)c1cccs1)c1c(F)cccc1F (stereo not given)
    103 | 108
- COc1ccc(CCNC(=O)CSC2=Nc3ccccc3C3=NC(CCC(=O)NCc4ccccc4)C(=O)N23)cc1OC (stereo not given)
    110 | 111
- Cn1c(=O)c(=O)n(C)c2cc(S(=O)(=O)Nc3ccc(Cl)c(C(F)(F)F)c3)ccc21
    105 | 110
- CCc1cc2c(cc3c(=O)n(CC(=O)NC4CCCCC4)nc(CC)n32)s1
    106 | 111
- CC(C)OCCCNC(=O)C(=O)Nc1ccc2nc3n(c(=O)c2c1)CCCCC3
    109 | 111
- COc1cc2c(cc1NS(=O)(=O)c1cccc(C#N)c1)n(C)c(=O)n2C
    106 | 110
- CCN(CC)C(=O)C1=C(C)Nc2nc3ccccc3n2C1c1cccc(OC)c1 (stereo not given)
    101 | 106
- CCOc1ccc(NC(=O)c2cc3nc(-c4ccc(OC)cc4)cc(C(F)(F)F)n3n2)cc1
    109 | 109
- CC(=O)N1CCc2cc(S(=O)(=O)NC(Cc3ccccc3)C(=O)Nc3cc(C)ccc3C)ccc21 (stereo not given)
    106 | 106
- CC1CCN(CC2CCN(C(=O)NCc3ccccc3)CC2)CC1
    103 | 108
- CCN(CC)S(=O)(=O)c1ccc2c(c1)N(CC(=O)N1CCN(c3cccc(OC)c3)CC1)C(=O)CO2
    109 | 110
- Cc1c(C(=O)N(Cc2ccc(N(C)C)cc2)CC2CCCO2)oc2ccc(Br)cc12 (stereo not given)
    111 | 114
- CC(=O)Nc1ccc(NC(=O)CSc2nc3ccccc3nc2N2CCCCC2)cc1
    104 | 107
- CC(C)N(CCCNC(=O)Cn1ncc2c([nH]c3ccccc32)c1=O)Cc1ccccc1
    105 | 116
- CCCS(=O)(=O)c1nc(S(=O)(=O)c2ccc(C)cc2)c(NC)s1
    102 | 106
- COC(=O)c1c(-c2cccs2)csc1NC(=O)COc1c(C)ccc(C)c1C
    62* | 63*
- O=C(Nc1cccc(OCc2cc(=O)n3ccccc3n2)c1)c1ccccc1Br
    98 | 101
- COc1ccc(CCNS(=O)(=O)c2ccc3c(c2)c(=O)n(C)c(=O)n3C)cc1OC
    110 | 108
- COc1cc(OC)c(NC(=O)C2=C(C)C(=O)OC23CCCCCC3)cc1Cl
    108 | 108
- CCc1ccc(N2CCn3c2nc2c3c(=O)n(CCCc3ccccc3)c(=O)n2C)cc1
    103 | 106
- CSc1ccc(CCNC(=O)Cn2ncn3c(cc4ccccc43)c2=O)cc1
    111 | 112
- CC(C)COc1ccc(C(=O)N2CCC(c3nc4ccccc4s3)CC2)cc1
    106 | 112
- Cc1ccc(C(=O)Nc2cc3cc(Cl)ccc3oc2=O)cc1
    106 | 112
- CCC(CC)C(=O)Nc1ccc(S(=O)(=O)N2CCC(c3nc4ccccc4s3)CC2)cc1
    112 | 118
- CCOC(=O)c1c(NC(=O)c2cc(-c3ccc(Cl)cc3)on2)sc(C)c1C
    106 | 106
- Fc1ccc(Nc2ncnc3onc(-c4cccc(Cl)c4)c23)c(F)c1
    104 | 109

Further entries:
Every second line gives: Polio RdRp inh | Polio RdRp inh intensity
- COc1ccc(CNc2nc(SCc3ccccc3Cl)nc3ccccc23)cc1
    107 | 113
- O=c1c2cc3c(nc2ncn1Cc1ccc(Cl)cc1)CCCC3
    108 | 108
- Cc1ccn2c(=O)c(C(=O)NCCc3ccccc3)c(O)nc2c1
    108 | 104
- CCC1CN(C(=O)N2CCC(C(=O)Nc3ccccc3F)CC2)c2ccccc2O1 (stereo not given)
    112 | 103
- CCOC(=O)N1CCc2c(sc3c2c(=O)n(CCc2ccccc2)c(=O)n3CC(=O)Nc2cccc(C)c2)C1
    105 | 110
- O=C(CCC(=O)N1CCSc2ccccc21)NCc1ccccc1Cl
    113 | 113
- Cc1cc(C)c2oc(-c3ccc(NC(=O)c4cc(Br)ccc4Cl)cc3)nc2c1
    97 | 100
- O=S1(=O)N(Cc2ccccc2)CCCN1Cc1ccc(F)cc1Cl
    102 | 108
- COc1ccc(S(=O)(=O)Nc2ccc3c(c2)sc(=O)n3C)cc1Cl
    103 | 100
- COc1ccccc1CNC(=O)CCCn1nc(C)c2c(C)n(-c3ccc(C)cc3)nc2c1=O
    105 | 107
- COc1ccccc1CNC(=O)CCC(=O)N1CC2CCCN2c2ccccc21 (stereo not given)
    106 | 115
- CC(CNC(=O)CN1C(=O)COc2ccc(S(=O)(=O)N3CCCCC3)cc21)c1ccccc1 (stereo not given)
    110 | 114
- COc1ccc(CCNC(=O)c2c(C)oc3ncn(CC(C)C)c(=O)c23)c(OC)c1
    111 | 116
- COc1ccccc1OCc1nc(-c2cccc(C)c2)no1
    107 | 109
- Cn1c(SCC(=O)Nc2nc3ccccc3s2)ncc(C(=O)Nc2ccc(Cl)cc2)c1=O
    104 | 101
- O=C(CCSCc1ccccc1Cl)N1CCN(c2cccc(Cl)c2)CC1
    110 | 104
- CS(=O)(=O)c1ncc(Cl)c(C(=O)N(Cc2ccc(Cl)cc2)Cc2ccco2)n1
    111 | 107
- CCOc1ccccc1NC(=O)c1c(NC(=O)c2cccc(C)c2)sc2c1CCCC2
    106 | 111
- CCOC(=O)c1cnc2c(C)c(Cl)ccc2c1Nc1ccc(C)cc1C
    103 | 96
- Cc1ccc(CNC(=O)c2ccc3c(c2)N(Cc2ccccc2F)C(=O)c2ccccc2S3(=O)=O)cc1
    106 | 109
- CC1CCN(C(=O)CSc2c(C(C)C)cnc3c2c(=O)n(C)c(=O)n3C)CC1
    104 | 102
- CCOCCn1ccc2c(OCC(=O)Nc3cccc(F)c3)cccc2c1=O
    105 | 107
- Cc1ccsc1CN(C(=O)c1oc2ccc(F)cc2c1C)C1CCS(=O)(=O)C1 (stereo not given)
    120 | 119
- COc1ccc(OC)c(CCNC(=O)CN2C(=O)COc3ccc(S(=O)(=O)N4CCC(C)CC4)cc32)c1
    104 | 106
- Cc1cc(NC(=O)c2cc(-c3ccc(Cl)c(Cl)c3)on2)n(-c2ccccc2)n1
    104 | 107
- COc1ccccc1NC(=O)C1=C(C)Nc2c(C(=O)Nc3ccc(F)cc3)cnn2C1c1ccc(Cl)cc1 (stereo not given)
    101 | 107
- COc1ccc(Cl)cc1NC(=O)c1cc2nc(-c3ccc(C)cc3)cc(C(F)(F)F)n2n1
    104 | 107
- CCOC(=O)CCN(c1ccccc1)S(=O)(=O)c1ccc2[nH]c(=O)ccc2c1
    101 | 107
- CCc1ccc(CNC(=O)Cc2c(C(=O)O)c(C)cn2C)cc1
    112 | 116
- COc1ccc(C)cc1NC(=O)N1CCN(c2nnc(C)c3c(C)n(-c4ccccc4)nc23)CC1
    106 | 107

A few values from the entries so far.
CS(=O)(=O)c1ncc(Cl)c(C(=O)N(Cc2ccc(Cl)cc2)Cc2ccco2)n1 – Polio RdRp inh intensity: 107
COc1ccc(C)cc1NC(=O)N1CCN(c2nnc(C)c3c(C)n(-c4ccccc4)nc23)CC1 – Polio RdRp inh intensity: 107
Cc1ccc(CNC(=O)c2ccc3c(c2)N(Cc2ccccc2F)C(=O)c2ccccc2S3(=O)=O)cc1 – Polio RdRp inh: 106
COc1ccc(OC)c(CCNC(=O)CN2C(=O)COc3ccc(S(=O)(=O)N4CCC(C)CC4)cc32)c1 – Polio RdRp inh: 104

Looked up one by one from the entries so far (5):
Every second line gives: Polio RdRp inh | Polio RdRp inh intensity
- COc1ccc(OC)c(CCNC(=O)CN2C(=O)COc3ccc(S(=O)(=O)N4CCC(C)CC4)cc32)c1
    104 | 106
- Cc1cc(C)c2oc(-c3ccc(NC(=O)c4cc(Br)ccc4Cl)cc3)nc2c1
    97 | 100
- Cc1ccsc1CN(C(=O)c1oc2ccc(F)cc2c1C)C1CCS(=O)(=O)C1 (stereo not given)
    120 | 119
- COc1ccccc1OCc1nc(-c2cccc(C)c2)no1
    107 | 109
- Cc1ccc(CNC(=O)c2ccc3c(c2)N(Cc2ccccc2F)C(=O)c2ccccc2S3(=O)=O)cc1
    106 | 109

Continued:
Every second line gives: Polio RdRp inh | Polio RdRp inh intensity
- Cc1cccc(N2CCN(C(=O)Cn3nc(C)n4cccc4c3=O)CC2C)c1 (stereo not given)
    110 | 107
- Cc1ccccc1-c1ccnc2c(-c3ccc(F)cc3)c(C)nn12
    105 | 105
- COc1ccccc1CNS(=O)(=O)c1cc(Br)cc2c1N(C(C)=O)C(C)C2 (stereo not given)
    107 | 108
- Cc1cc(C)c2c(n1)SCCN2C(=O)Nc1ccc(C(=O)Nc2ccc(C(C)C)cc2)cc1
    101 | 109
- COc1cc(C(=O)N2CC(=O)Nc3ccc(C)cc3C2c2ccc(F)cc2)cc(OC)c1OC (stereo not given)
    104 | 102
- COc1ccc(CNC(=O)C2CCN(c3nnc(C)c4c(C)n(-c5ccc(C)cc5)nc34)CC2)cc1
    111 | 111
- Cc1cccc(CNC(=O)c2ccc(NC(=O)N3CC(C)Sc4ccccc43)cc2)c1 (stereo not given)
    110 | 114
- Cc1ccc(S(=O)(=O)Nc2cc3c(cc2NCc2ccccc2)n(C)c(=O)n3C)cc1
    107 | 113
- COc1ccc(OCCn2c(NC(=O)c3ccc(OC)cc3)nc3ccccc32)cc1
    108 | 113
- O=C(NCc1ccc(Cl)cc1)c1cc2ccc3cccnc3c2[nH]1
    108 | 116
- COc1ccc2c(c1)Cc1sc(NC(=O)c3ccccc3C)nc1-2
    83* | 84*
- COc1ccc(N2CCN(C(=O)c3ccc4c(c3)CCN4S(=O)(=O)c3ccccc3)CC2)cc1
    102 | 96
- CCOc1cc(-c2ccc(OC(=O)c3ccc(C)cc3)c(OC)c2)cc(=O)c2c(C)oc(C)c12
    106 | 100
- COc1ccccc1CNC(=O)CCC1N=C2c3ccccc3N=C(SCc3cccc(Cl)c3)N2C1=O (stereo not given)
    106 | 110

Compound profiles, as listed above. Order of values: Polio RdRp inh | Polio RdRp inh intensity
CC(C)OCCCNC(=O)C(=O)Nc1ccc2nc3n(c(=O)c2c1)CCCCC3 is listed with 109 | 111
COc1cc(OC)c(NC(=O)C2=C(C)C(=O)OC23CCCCCC3)cc1Cl is listed with 108 | 108
